Menin MLL FP FL = menin-MLL binding inhibition, fluorescein peptide; 290,000 tested, under 10 active; Fluorescence polarization, fluorescein-MLL peptide displacement from menin; AID 1766; FP activity change, % at 61.4 µM; inconclusive = falling polarisation curve, or a change in total fluorescence; inactive = total fluorescence flat and polarisation flat or rising; no compound was filed as active; the % refers to the polarisation; negative = inhibition;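 note: % of control where 0% means no effect; inhibitors lower the polarisation; unlabelled MLL peptide was the positive control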
gsp antagonist = gsp mutant antagonism; gsp-mutant cells, cAMP HTRF, 30 min; control for the full effect not named in the record; Potency, µM (top dose mostly 76.9 µM), for inactives: top-dose activity change, negative = inhibition, hits mostly inhibitors; actives 0.4% (n = 340,000); active = falling curve of any shape with a large fitted effect; inconclusive = falling curve, mostly with a smaller effect; inactive = flat or rising curve; cell line not stated here;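 note: intracellular cAMP measured with PDE inhibitor Ro 20-1724 present during compound exposure; potency is the fitted concentration of half-maximal effect; % is set by controls: 0 for no effect and ±100 for the full control effect; nearly all actives have a fitted effect of over 65% in size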
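Measurement of cellular cAMP by homogeneous time-resolved fluorescence following a 30 min compound exposure at 37C. The PDE inhibitor […] was present throughout; the assay buffer was DPBS with 0.05% BSA and 0.005% Tween 20.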
D2 ag = agonists of human D2 dopamine receptor (beta-arrestin); P14416; DiscoveRx PathHunter D2 beta-arrestin, luminescence, 90 min; 100% = 57 uM dopamine signal; activation, % (test concentration not listed); actives 0.084% (n = 360,000); AID 624465; in the data active = activation above about 40%; inconclusive = about 15% to 40%; inactive = below about 15%; note: compound concentration not given in the record; the text of the record calls up to 30% inactive
Target sequence (P14416 whole entry, looked up): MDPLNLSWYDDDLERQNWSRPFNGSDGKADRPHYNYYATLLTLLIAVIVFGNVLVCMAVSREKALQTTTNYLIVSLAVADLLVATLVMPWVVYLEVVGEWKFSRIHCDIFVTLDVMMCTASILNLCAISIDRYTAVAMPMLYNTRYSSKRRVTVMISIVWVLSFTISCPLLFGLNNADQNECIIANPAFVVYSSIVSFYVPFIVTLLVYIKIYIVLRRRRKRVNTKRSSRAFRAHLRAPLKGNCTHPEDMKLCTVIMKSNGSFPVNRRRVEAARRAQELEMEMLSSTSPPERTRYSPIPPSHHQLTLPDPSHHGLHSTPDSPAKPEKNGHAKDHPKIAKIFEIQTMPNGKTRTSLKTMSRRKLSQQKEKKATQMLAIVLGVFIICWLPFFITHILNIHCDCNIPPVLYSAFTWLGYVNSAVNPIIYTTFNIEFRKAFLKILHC
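Agonist mode: compounds alone added to overnight-plated D2 PathHunter cells for 90 min at 37 C, with 57 uM final dopamine (EC100) defining full response. Beta-arrestin recruitment detected by chemiluminescent reagent, read after 1 h at ambient temperature.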
gsp agonist = agonists of gsp mutant (McCune-Albright syndrome); gsp mutant cells, cAMP HTRF, 30 min; control for the full effect not named in the record; Potency, µM (titrated, usually from 76.9 µM), inactives show at the highest dose activation (cAMP increase), most hits filed as activators; actives 0.13% (n = 340,000); active = well fitted activation curve with a large enough effect; inconclusive = small, poorly fitted or top-dose-only effect, or another doubt; inactive = no such curve, though single readings can be large or run the other way; cell line not stated here;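 note: phosphodiesterase inhibitor Ro 20-1724 added with compounds to block cAMP breakdown; potency is the fitted concentration of half-maximal effect; nearly all actives have a fitted effect of over 60% in size; about a fifth of the inactives were tested at one dose only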
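Cells in DMEM/10% FBS with G418 were pretreated with compounds in DMSO plus […] (300 uM stock) for 30 min at 37C. cAMP was measured by HTRF (cAMP-d2 plus anti-cAMP antibody-K) after 30 min at room temperature.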
Sfp PPTase inh = blocks B. subtilis Sfp PPTase activity; Q9F4F7; Biochemical Sfp PPTase activity, qHTS; Potency, µM, for the others: max response, negative = inhibition, actives largely listed as inhibitors; actives 3.5% (n = 310,000); active = well fitted inhibition curve with a large enough effect; inconclusive = small, poorly fitted or top-dose-only effect, or another doubt; inactive = no such curve, though single readings can be large or run the other way;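 note: the enzyme is Sfp with the accession as filed and its product quenches rhodamine fluorescence; potency is the fitted concentration of half-maximal effect; 0% = enzyme reaction without inhibitor and -100% = no enzyme wells; top concentration of the series not given in the record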
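Step 1, compound plus 15 nM Sfp-PPTase, 15 min, room temperature. Step 2, add rhodamine-CoA (5 uM) and BHQ-2-YbbR (12.5 uM). Step 3, read 525/598 nm fluorescence at 0 and 30 min.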
PINK1 modulator = modulators of PINK1 expression; AID 624263; PINK1 immunofluorescence, high-content cytometry, 24 h; actives 0.2% (n = 410,000); Potency, µM (titrated, usually from 76.6 µM), for inactives: top-dose activation (PINK1 increase), hits mostly activators; active = well fitted activation curve with a large enough effect; inconclusive = small, poorly fitted or top-dose-only effect; inactive = flat fitted curve, though single readings scatter; cell line not stated here;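 note: potency is the fitted concentration of half-maximal effect; % of control where 0% means no effect; nearly all actives have a fitted effect of over 65% in size; a mitochondrial uncoupler was the plate control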
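Cells are seeded, rested 12 hours, then given compound at five concentrations or DMSO for 24 hours. After fixation, blocking and antibody staining, PINK1 amount and mitochondrial localization are scored; CCCP serves as control.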
ClpP mod = qHTS Assay for Activators of ClpP; ATP-dependent Clp protease proteolytic subunit (Bacillus subtilis (strain 168)), P80244; purified B. subtilis ClpP, FRET peptide cleavage, 20 min; Potency, µM (highest dose often 57.5 µM), for inactives: at the highest dose activity change, negative = active; actives 1.9% (n = 340,000); active = well fitted falling curve with a large enough effect; inconclusive = small, poorly fitted or top-dose-only effect; inactive = no such curve, though single readings can be large or run the other way; note: potency is the fitted concentration of half-maximal effect; the source files actives as falling curves though it sought activators and does not explain the sign; nearly all actives have a fitted effect of over 65% in size; many hits overshoot -100%
Target sequence (P80244 whole entry, looked up): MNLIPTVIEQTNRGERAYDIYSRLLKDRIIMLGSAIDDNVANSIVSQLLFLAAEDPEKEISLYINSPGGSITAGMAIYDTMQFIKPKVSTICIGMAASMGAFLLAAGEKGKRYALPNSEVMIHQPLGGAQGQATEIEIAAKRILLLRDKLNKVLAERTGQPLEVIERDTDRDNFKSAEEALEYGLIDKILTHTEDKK
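ClpP 10 microg/mL final, pH 8 Tris/KCl buffer with BSA, glycerol, Tween-20; compound pinned in; FRET-FV substrate; RT 20 min; Ex320/Em430; ΔFRET vs ADEP 5.8 microM, DMSO, no enzyme.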
Starred values were filed as active, the others as inactive; u = inconclusive; x = not tested or not shown; [ ] = dose if it differs, or a comment. An unsorted share of the library; 5.1% or so of the library scored in one or more.

SMILES | Menin MLL FP FL | gsp antagonist | D2 ag | gsp agonist | Sfp PPTase inh | PINK1 modulator | ClpP mod
O=C(O)CCC1(c2ccccc2)NC(=O)NC1=O (stereo not drawn) | -1.1 | 6% | 1.9 | 3%[15.4 µM] | 27% | 6.3% | x
COCCn1nnnc1C(c1ccc(C(F)(F)F)cc1)N1CCOCC1 (stereo not drawn) | 3.4 | 4% | -2.4 | 12% | -6% | -1.4% | -1.0%
COc1ccccc1CNS(=O)(=O)CCNCCc1ccccc1 | x | -6% | 1.0 | x | x | -0.7% | -1.5%
Cc1c(Cl)c([N+](=O)[O-])nn1CCCC(=O)Nc1cc(Oc2ccccc2)cc([N+](=O)[O-])c1 | -2.0 | 12% | 1.4 | 2% | 4% | 4.8% | u
CSc1ccc(C#N)cc1NC(=O)c1ccc(Cl)nc1 | 8.4 | x | -3.4 | -3%[15.4 µM] | -22% | 0.8% | x
CC(C)NCCCOc1ccc(C(C)(C)c2ccccc2)cc1 | 0.3 | 10% | -3.1 | 4% | u | 4.7% | -0.6%
COC(=O)C1=C(C)NC(=O)NC1c1ccc(OC)c(OC)c1 (stereo not drawn) | x | x | -5.2 | u | x | -0.9% | -4.2%
OC(c1ccc(F)cc1)c1nc(-c2csc3ccccc23)cs1 (stereo not drawn) | x | x | 1.5 | x | x | 8.8% | -3.9%
CC(OC(=O)CSc1ccc([N+](=O)[O-])cc1)C(=O)NCc1ccccc1 (stereo not drawn) | x | -20% | 0.4 | 13%[15.4 µM] | x | 4.1% | x
CC(C)c1ccccc1OCC(=O)Nc1ccccc1C(=O)N1CCOCC1 | -3.6 | -10% | -4.1 | -29% | 8% | 1.4% | 2.4%
COC(=O)c1ccccc1C(=O)N1CCOCCN(C(=O)c2ccccc2C(=O)OC)CCOCC1 | -0.3 | 4% | -3.0 | 15% | 17% | 0.8% | -4.4%
CC(=O)Nc1ccc(NC(=O)/C(=C/c2ccco2)NC(=O)c2ccccc2)cc1 | 2.0 | 8% | 1.0 | 6%[15.4 µM] | 18µM* | -0.2% | x
Cc1ccc(NC(=O)c2ccc3ccccc3n2)nc1 | -1.8 | -5% | 0.7 | -17% | -23% | -0.4% | -1.7%
O=C(CN(CC1CCCO1)C(=O)CNS(=O)(=O)c1ccc(F)cc1)NCc1ccccc1 (stereo not drawn) | 1.9 | 3% | -1.9 | -9%[15.4 µM] | -2% | 0.5% | x
COc1ccc([N+](=O)[O-])cc1NC(=O)CCCOc1ccccc1 | -0.2 | -9% | -3.3 | 0% | 6% | 2.7% | 1.8%
COc1ccc2cc(C(=O)Nc3ccccc3)sc(=O)c2c1OC | 2.4 | -7% | 1.4 | 17% | -5% | u | -7.3%
COC(=O)c1cccc(-n2sc3ccccc3c2=O)c1 | x | u | -5.7 | -1% | x | -1.2% | -0.3%
O=C1Cc2cc(S(=O)(=O)Nc3cccc([N+](=O)[O-])c3)cc3c2N1CCC3 | -8.6 | -8% | -5.3 | u | 11% | -0.4% | -1.9%
O=C(NCC1CCCO1)c1csc2c1CCCC2 (stereo not drawn) | 0.1 | 2% | 1.9 | 2% | 9% | -0.2%[38.3 µM] | -1.3%
O=C(CCc1nc2ccccc2c(=O)[nH]1)N1CCN(C/C=C/c2ccccc2)CC1 | 3.6 | 22µM* | 4.1 | 3% | u | -1.2% | -1.2%
Cc1cc(Br)c(NC(=O)COC(=O)CSc2nnc(-c3ccc(Cl)cc3)o2)c(Br)c1 | 3.2 | 2% | -4.2 | -2% | 3% | 2.1% | 0.6%
CNc1ccc(OC(F)F)cc1C(=O)c1ccccc1 | -2.4 | -7% | -2.3 | 17% | -21% | 2.7%[38.3 µM] | -0.4%
CC1C(=O)N(Cc2cn(Cc3ccco3)nn2)CCS(=O)(=O)N1Cc1ccc(-c2ccccc2)cc1 (stereo not drawn) | x | x | -3.7 | -5% | x | -0.5% | -0.6%
O=C(COC(=O)c1ccccc1Cl)NCc1ccco1 | x | 0% | 3.8 | 5% | x | -1.0% | -1.9%
CCOc1cccc(OCCOc2ccccc2[N+](=O)[O-])c1 | -5.4 | -9% | -1.7 | -5% | u | 2.2% | -2.8%

(listing goes on)
SMILES | Menin MLL FP FL | gsp antagonist | D2 ag | gsp agonist | Sfp PPTase inh | PINK1 modulator | ClpP mod
Cn1c(Cc2ccccc2)nnc1SCc1ccc(C(=O)O)cc1 | 4.4 | 0% | -4.3 | 7% | 26% | -0.1% | 0.6%
O=C(c1cc(=O)[nH]c2ccccc12)N1CCN(S(=O)(=O)c2ccc3ccccc3c2)CC1 | 5.8 | -10% | -1.3 | 12% | 7% | 5.5% | -28%
CC(=O)Nc1ccc(NC(=O)[C@@H]2CCCC[C@@H]2C(=O)O)cc1 | -1.0 | 8% | 1.2 | u | 23% | -0.5% | x
Cc1ccc(NC(=O)c2cc(NC(=O)C3CC=CCC3C(=O)O)ccc2N2CCOCC2)cc1Cl (stereo not drawn) | 0.3 | u | -1.0 | -24% | 10% | 4.5% | u
Cc1ccc(S(=O)(=O)NCC(=O)N2CCN(S(=O)(=O)c3ccc(Cl)cc3)CC2)cc1C | x | -3% | 0.6 | 20% | x | 1.9% | 1.0%
COc1ccc(C(C#N)(CCC#N)CCC#N)cc1OC | 2.7 | 8% | -1.7 | u | 5% | -0.6% | -5.1%
COC(C[C@H]1O[C@H]1C(=O)COCc1ccccc1)OC | 7.8 | 0% | -4.0 | -1% | 9% | -1.6% | -3.9%
CC(C)c1ccc(NC(=O)CSc2nc3ncccc3[nH]2)cc1 | 1.3 | -5% | 0.7 | -26% | 3% | 2.1% | -1.0%
COc1ccc(/C=C/C(=O)OCc2cc(=O)n3c(n2)sc2ccccc23)cc1 | 4.6 | 2% | -1.0 | -8%[15.4 µM] | 10% | -2.2% | -0.9%
Cc1cc(C)cc(N=c2c([N+](=O)[O-])nn(-c3ccc4c(c3)OCCO4)n2O)c1 | -3.6 | -3% | 12 | 7%[15.4 µM] | 14% | 1.8% | x
Cc1ccc(OCC(=O)c2cc(C)n(C3CC3)c2C)c([N+](=O)[O-])n1 | 6.0 | 2% | -0.7 | 4%[15.4 µM] | 6% | 7.7% | 2.3%
COc1ccc(CC(=O)c2ccc(OC)c(OC)c2)cc1 | 2.4 | 16% | -0.3 | 13% | -5% | 3.3% | 0.6%
COc1ccc(C)cc1NC(=O)CSc1nc(SC)ns1 | -1.9 | 1%[15.4 µM] | -3.6 | u | -20% | -1.5% | 1.4%
CCOc1ccccc1NC(=O)c1ccccc1NC(=O)c1ccco1 | 2.8 | -9% | -1.8 | -2%[15.4 µM] | -5% | -0.4% | x
Cc1[nH]c(=O)[nH]c(=O)c1S(=O)(=O)Nc1cccc(C(F)(F)F)c1 | 0.1 | 11% | 5.3 | 18% | 10% | -2.2% | 0.1%
Cc1cc(OCC(=O)NCCN2CCOCC2)cc(C)c1Cl | 4.5 | 11% | 5.8 | -22% | 9% | 2.0% | x
COCc1cc(=O)[nH]c(SCC(=O)Nc2ccccc2)n1 | 0.5 | 10% | -0.9 | 0% | 15% | 0.0% | -9.2%
N/C(=N\OC(=O)CC1CCCCC1)c1cccc([N+](=O)[O-])c1 | 0.4 | 0% | u | 0%[15.4 µM] | -4% | 0.0% | x
O=C(c1ccco1)N1CCCN(Cc2nc(Cc3ccccc3)no2)CC1 | 4.4 | 13% | -5.0 | 7% | 16% | 1.4% | x
COc1ccc(S(=O)(=O)N2CCN(C(=O)CSC(=S)N3CCCC3)CC2)cc1 | x | -6% | -0.7 | -14% | x | 2.3% | -1.3%
CCCC(c1nnnn1Cc1ccco1)N1CCN(c2cc(Cl)ccc2C)CC1 (stereo not drawn) | u | 3% | -2.3 | -1% | 3% | 5.6% | 0.1%
CN(C)C(=O)c1nc2ccc(Cl)cn2c1CNCc1cccc(OC(F)(F)F)c1 | -0.4 | 0% | 2.4 | u | 8% | -1.6% | -4.6%
NC(=O)c1cccc(-c2cnc(N)c(C(=O)c3cccnc3)n2)c1 | x | 0% | -1.0 | x | x | 2.1% | -7.5%
CN1N=C(C(=O)N2CCCC(N3CCN(c4ccc(F)cc4)CC3)C2)CCC1=O (stereo not drawn) | x | 6% | -0.5 | 11%[15.4 µM] | 7% | 0.8% | -0.4%
CCCc1cc(=O)[nH]c(SCC(=O)N2CCCCCC2)n1 | x | -19% | -5.9 | -54%[inhibitor] | x | -1.6% | 1.2%

(next part)
SMILES | Menin MLL FP FL | gsp antagonist | D2 ag | gsp agonist | Sfp PPTase inh | PINK1 modulator | ClpP mod
O=C(CN1C(=O)c2ccccc2C1=O)Nc1ccccc1C(F)(F)F | -1.2 | 12% | -2.0 | 1% | 3% | 3.1% | -0.6%
CCOc1ccc(CCNC(=O)c2ccc(NC3=NC4CS(=O)(=O)CC4S3)cc2)cc1 (stereo not drawn) | x | 2% | 2.0 | -3% | 13% | 0.4% | 1.9%
CCC1CCc2c(sc(NC(=O)C3CC=CCC3C(=O)O)c2C#N)C1 (stereo not drawn) | 3.7 | u | u | -6% | -27% | -1.7% | -2.8%
COc1cc(OC)c(CN2CCCCCCC2)cc1Br | 4.4 | -19% | 1.2 | -29% | -6% | u | -0.3%
CCCC(=O)c1c[nH]c(C(=O)NCc2cccnc2)c1 | -3.7 | 6% | -9.2 | 5% | -12% | 2.0% | -1.3%
COc1ccc(-n2c(=O)c(CCC(=O)N3CCN(c4ccccc4O)CC3)nc3ccccc32)cc1 | x | -11% | -4.4 | -40%[inhibitor] | x | u | 0.4%
CCCC(=O)Nc1ccc(S(=O)(=O)Nc2nccs2)cc1 | x | 4% | -4.9 | 2% | x | 4.1% | -0.7%
COc1ccccc1-n1cc(C(=O)NCC(=O)NCc2ccc(F)cc2)c2ccccc2c1=O | -2.0 | -7% | -0.6 | -18% | 23% | 1.5% | -22%
COC(=O)C1=C(C)N(Cc2ccccc2)C(=NCc2cc(OC)c(OC)c(OC)c2)N[C@H]1c1ccc(Br)cc1 | -8.1 | 5% | -2.4 | 12% | 10% | -1.1% | -0.1%

Source: PubChem
